# High-throughput results (PubChem BioAssay)
# rRNA inh HTS: inhibits bacterial ribosomal RNA function over humanized ribosomes; E. coli WT GFP vs humanized-ribosome RFP mutants, fluorescence, 24 h; stronger effect = lower value; DMSO median 0, no signal -100; GFP signal change (wild-type ribosome), % (test concentration not listed); 350,000 compounds, 1.6% hits;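 active = significant combined selectivity score with lowered wild-type GFP, culture density cut under 30%, mutant RFP and density less affected; inactive = any of these conditions unmet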; also: one replicate is shown; some compounds called inactive have numbers as strong as hits
# FGF22 binding: shifts melting point of recombinant human FGF22; calls only at 9.99 µM; AID 651658; recombinant FGF22 thermal shift, SYPRO orange fluorescence; percent of sucrose octasulfate shift, DMSO zero; Q9HCT0; 340,000 compounds, 1.5% hits;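 active = melting point raised past a set limit in the mean and every replicate; three in four hits are not shown here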
# Target sequence (Q9HCT0 whole entry, looked up): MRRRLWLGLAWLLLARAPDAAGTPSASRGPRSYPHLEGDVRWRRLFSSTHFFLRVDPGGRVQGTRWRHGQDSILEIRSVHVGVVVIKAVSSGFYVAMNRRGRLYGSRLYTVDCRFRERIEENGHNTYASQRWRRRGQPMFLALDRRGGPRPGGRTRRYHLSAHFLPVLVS
# rRNA inh HTS OD600: second read-out of rRNA inh HTS, no call of its own (marks repeat the call); OD600 change, %; measured here: OD600 growth;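 optical density of the mix in the first replicate; 0 = DMSO median and -100 = no signal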
# rRNA inh HTS RFP: also measured in rRNA inh HTS; calls as there; RFP signal change, %; measured here: RFP humanized mutant strains;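 first replicate; 0 = DMSO median and -100 = no signal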
# An asterisk follows results filed as active; i = inactive; + = active, no number. The list is partial; count on the stated rates, not on these rows.
rRNA inh HTS,rRNA inh HTS RFP,FGF22 binding,rRNA inh HTS OD600,molecule
7,15,i,8,COc1ccc2c3c([nH]c2c1)[C@H](CO)N(C(=O)C1CCOCC1)CC31CN(S(C)(=O)=O)C1
-2,-2.1,i,-5,CCCNC(=O)[C@H]1[C@H](CO)[C@H]2Cn3c(cccc3=O)[C@H]2N1Cc1ccccc1Cl
6,-2.1,i,0,COc1ccc(CN(C)C[C@H]2Oc3ccc(NC(=O)Nc4c(C)noc4C)cc3CC(=O)N([C@H](C)CO)C[C@H]2C)cc1
-2,3.0,i,-6,C[C@@H]1CCCCO[C@H](CN(C)Cc2ccc(Cl)c(Cl)c2)[C@H](C)CN([C@@H](C)CO)C(=O)c2cc(NC(=O)Cc3ccccc3)ccc2O1
1,-1.4,i,0,C[C@@H]1CN([C@@H](C)CO)C(=O)c2cc(NC(=O)Cc3ccccc3)ccc2O[C@@H]1CN(C)C(=O)NC1CCCCC1
8,4.4,i,23,COc1ccc(Sc2cccc3c2S(=O)(=O)N(C2CC2)C[C@@H](COCc2ccccc2)O3)cc1OC
0,-1.8,i,8,C[C@H](CO)N1C[C@H](C)[C@@H](CN(C)CC2CCCCC2)Oc2ncc(C#C[C@@H](C)O)cc2C1=O
-3,1.6,i,-9,COc1ccc(S(=O)(=O)Nc2ccc3c(c2)C(=O)N([C@H](C)CO)C[C@@H](C)[C@H](CN(C)S(=O)(=O)c2ccccc2)OCCCC[C@H](C)O3)cc1
1,1.4,i,6,CN1C(=O)c2cc(NC(=O)C3CCCC3)ccc2OC[C@@H]2O[C@@H](CC(=O)Nc3ccccc3)CC[C@@H]21
-6,3.7,i,-7,CO[C@H]1CN(C)C(=O)c2ccc(NC(=O)c3ccccc3F)cc2OC[C@H](C)N(CC2CCOCC2)C[C@@H]1C
-55,-8.1,i,-77,COc1cccc(-c2ccc([C@H]3[C@H](CO)N4CCCCN(C(=O)c5ccc(F)cc5)C[C@@H]34)cc2)c1
-2,-0.7,i,11,COCCNC(=O)[C@@H]1[C@@H](CO)[C@@H]2Cn3c(ccc(-c4ccccc4)c3=O)[C@H]1N2C
6,-1.2,+,11,CCCN(C)C[C@@H]1Oc2cc(C#CC(C)(C)O)ccc2S(=O)(=O)N([C@@H](C)CO)C[C@@H]1C
3,3.3,i,12,CN1C[C@@H](O)COC[C@@H]2O[C@H](CC(=O)NC3CCC3)CC[C@H]21
1,1.5,i,9,CN(C)CC#Cc1ccc([C@@H]2[C@H](CO)N3CCCCN(S(=O)(=O)c4ccccc4F)C[C@@H]23)cc1
4,-0.3,i,5,O=C(CN1CCOCC1)NCC[C@@H]1CC[C@H](NS(=O)(=O)c2ccc(F)cc2)[C@@H](CO)O1
-3,0.5,i,-1,O=C(Nc1ccccc1)N[C@@H]1CC[C@@H](CCNS(=O)(=O)c2cccc(F)c2)O[C@@H]1CO
1,-3.0,i,-3,COc1ccc(NC(=O)N(C)C[C@H]2Oc3ncc(C#C[C@@H](C)O)cc3C(=O)N([C@@H](C)CO)C[C@H]2C)cc1
2,-2.9,i,0,C[C@H]1CN([C@@H](C)CO)C(=O)c2cc(NC(=O)NC3CCCCC3)ccc2O[C@H]1CN(C)Cc1ccncc1
0,-0.9,i,0,CO[C@@H]1CN(C)C(=O)c2cc(NS(C)(=O)=O)ccc2OC[C@H](C)N(C(=O)C2CCCCC2)C[C@@H]1C
-3,3.1,i,-12,COc1cccc(-c2ccc3c(c2)O[C@@H](CN(C)C(=O)C2CC2)[C@H](C)CN([C@H](C)CO)S3(=O)=O)c1
-2,-1.5,i,0,COc1ccc(-c2cn(CC[C@H]3CC[C@H](NC(=O)NC(C)C)[C@H](CO)O3)nn2)cc1
-11,6.5,i,-8,O=C(NCC[C@H]1CC[C@H](NC(=O)c2ccc3c(c2)OCO3)[C@@H](CO)O1)Nc1ccc(Cl)cc1
3,-0.1,i,11,CC(=O)N1CC[C@H]2[C@H](CO)Nc3ccc(-c4ccc(F)cc4)cc3[C@H]21
-2,1.1,i,-14,C[C@H]1CN([C@@H](C)CO)S(=O)(=O)c2ccc(-c3cncnc3)cc2O[C@H]1CN(C)Cc1ccc(Oc2ccccc2)cc1
-4,0.1,i,6,C[C@H]1CN([C@@H](C)CO)S(=O)(=O)c2ccc(-c3ccc(C#N)cc3)cc2O[C@H]1CN(C)C(=O)C1CC1
1,-3.9,i,9,C[C@H]1CN([C@@H](C)CO)C(=O)c2cc(-c3cccc(F)c3)cnc2O[C@@H]1CN(C)Cc1ccccn1
-3,-2.4,i,-5,O=C(C[C@@H]1C[C@H]2c3cc(NC(=O)NC4CCCC4)ccc3O[C@H]2[C@@H](CO)O1)NCc1cc(F)ccc1F
2,0.2,i,17,CC(=O)N1[C@@H](CO)[C@@H](c2ccc(C3=CCCC3)cc2)C12CN(C(=O)NC(C)C)C2
4,3.1,i,-6,COc1ccc(S(=O)(=O)Nc2ccc3c(c2)C(=O)N([C@@H](C)CO)C[C@H](C)[C@@H](CN(C)C(=O)NC(C)C)OCCCC[C@@H](C)O3)cc1
-3,1.1,i,-4,C[C@@H]1CN([C@@H](C)CO)C(=O)c2cc(/C=C/c3ccccc3)cnc2O[C@H]1CN(C)S(=O)(=O)c1ccc(F)cc1
-5,15,i,-12,COc1ccc(-c2ccc3c(c2)O[C@@H](CN(C)Cc2cccnc2)[C@@H](C)CN([C@H](C)CO)S3(=O)=O)cc1
-4,-1.5,i,-2,C[C@@H]1CCCCO[C@@H](CN(C)C(=O)Nc2ccc3c(c2)OCO3)[C@H](C)CN([C@H](C)CO)C(=O)c2cc(NC(=O)CCC(F)(F)F)ccc2O1
6,-1.2,i,2,COc1ccc(S(=O)(=O)Nc2ccc3c(c2)CC(=O)N([C@@H](C)CO)C[C@H](C)[C@@H](CN(C)C(=O)NC2CCCCC2)O3)cc1
1,-4.2,i,11,CC(C)NC(=O)Nc1ccc2c(c1)C(=O)N([C@H](C)CO)C[C@H](C)[C@H](CN(C)C(=O)Cc1ccccc1)OCCCC[C@@H](C)O2
-55,-14,i,-74,C[C@H](CO)N1C[C@H](C)[C@@H](CN(C)Cc2ccccc2)Oc2cc(Br)ccc2S1(=O)=O
5,-1.2,i,12,C[C@@H]1CN([C@H](C)CO)C(=O)Cc2cc(NC(=O)CCN3CCOCC3)ccc2O[C@H]1CN(C)Cc1ccc2c(c1)OCO2
4,2.2,i,7,CCCC#Cc1cnc2c(c1)C(=O)N([C@H](C)CO)C[C@H](C)[C@H](CN(C)C(=O)C1CCC1)O2
2,-1.2,i,5,CCNC(=O)C[C@@H]1CC[C@@H](NS(=O)(=O)c2ccc(F)cc2)[C@H](CO)O1
4,-4.3,i,2,O=C(NCCN1CCCCC1)[C@H]1N[C@H]2c3ccc(-c4ccncc4)c(=O)n3C[C@H]2[C@@H]1CO
1,-2.6,i,16,CCCNC(=O)N1CC2(CCN(C(C)=O)CC2)c2c(n(C)c3cc(OC)ccc23)[C@H]1CO
3,-0.4,i,6,CN1CCN(C(=O)C[C@H]2C=C[C@H](NC(=O)c3ccc4c(c3)OCO4)[C@@H](CO)O2)CC1
-5,-1.9,i,-9,O=C(C[C@@H]1CC[C@@H](NC(=O)Cc2cccnc2)[C@@H](CO)O1)Nc1ccc(-c2ccccc2)cc1
1,0.6,i,0,CO[C@H](C(=O)N(C)C[C@H]1OCc2ccccc2-c2ccccc2C(=O)N([C@@H](C)CO)C[C@@H]1C)c1ccccc1
2,-1.0,i,7,CC(C)NC(=O)Nc1ccc2c(c1)C(=O)N([C@H](C)CO)C[C@H](C)[C@H](CN(C)Cc1ccc(C(=O)O)cc1)O2
-1,1.3,i,10,COc1ccc(S(=O)(=O)N(C)C[C@H]2Oc3ccc(NC(=O)C4CCCCC4)cc3CC(=O)N([C@@H](C)CO)C[C@H]2C)cc1
1,-1.4,i,-1,C[C@H](CO)N1C[C@H](C)[C@@H](CN(C)S(=O)(=O)c2ccccc2)Oc2c(NC(=O)Nc3cccc4ccccc34)cccc2C1=O
5,-2.4,i,-1,COc1cccc(NC(=O)N(C)C[C@@H]2Oc3cc(-c4cccc(C(=O)N(C)C)c4)ccc3S(=O)(=O)N([C@@H](C)CO)C[C@H]2C)c1
-3,-0.3,i,-7,C[C@@H]1CN([C@H](C)CO)C(=O)c2cccc(NC(=O)Nc3ccc(C(F)(F)F)cc3)c2O[C@H]1CN(C)C(=O)Nc1ccccc1
0,-4.5,i,0,C[C@@H]1CN([C@H](C)CO)C(=O)c2ccccc2-c2ccccc2CO[C@H]1CN(C)C(=O)Nc1ccccc1C(F)(F)F
4,-3.0,i,8,Cc1ccccc1S(=O)(=O)N1C[C@H](O)COC[C@@H]2O[C@H](CC(=O)N3CCN(C)CC3)CC[C@H]21
-1,-1.6,i,9,Cc1noc(C)c1S(=O)(=O)N(C)C[C@H]1Oc2ccc(NC(=O)Cc3ccccc3)cc2CC(=O)N([C@@H](C)CO)C[C@@H]1C
0,-0.6,i,1,C[C@@H]1CN([C@H](C)CO)C(=O)CCCn2nncc2CO[C@@H]1CN(C)Cc1cccc(C(=O)O)c1
3,-1.1,i,6,COCC(=O)Nc1ccc2c(c1)C(=O)N(C)[C@H]1CC[C@@H](CC(=O)NCC(F)(F)F)O[C@H]1CO2
-3,3.9,i,-4,O=C(C[C@H]1CC[C@@H]2[C@H](COC[C@@H](O)CN2Cc2ccc(F)cc2)O1)NCc1ccccc1Cl
-1,-3.4,i,4,CC(C)NC(=O)N(C)C[C@@H]1Oc2ccc(NC(=O)Nc3ccc4c(c3)OCO4)cc2CC(=O)N([C@@H](C)CO)C[C@H]1C
-13,8.6,i,-29,C[C@@H]1CCCCO[C@@H](CN(C)Cc2ccc3c(c2)OCO3)[C@H](C)CN([C@H](C)CO)C(=O)c2cc(NC(=O)Nc3cccc4ccccc34)ccc2O1
4,2.7,i,7,Cc1noc(C)c1S(=O)(=O)N(C)C[C@H]1OCCCC[C@@H](C)Oc2ccc(NC(=O)Nc3cccc4ccccc34)cc2C(=O)N([C@H](C)CO)C[C@@H]1C
3,-3.0,i,9,C[C@H]1CCCCO[C@H](CN(C)C(=O)C2CCCCC2)[C@@H](C)CN([C@@H](C)CO)C(=O)c2cc(NC(=O)Nc3cccc4ccccc34)ccc2O1
6,-5.3,i,2,C[C@H](O)C#Cc1ccc2c(c1)O[C@@H](CN(C)C(=O)CN(C)C)[C@@H](C)CN([C@H](C)CO)S2(=O)=O

# 7 entries out of the list, arranged by heavy-atom count, lowest first.
rRNA inh HTS,rRNA inh HTS RFP,FGF22 binding,rRNA inh HTS OD600,molecule
-3,3.9,i,-4,O=C(C[C@H]1CC[C@@H]2[C@H](COC[C@@H](O)CN2Cc2ccc(F)cc2)O1)NCc1ccccc1Cl
0,-0.6,i,1,C[C@@H]1CN([C@H](C)CO)C(=O)CCCn2nncc2CO[C@@H]1CN(C)Cc1cccc(C(=O)O)c1
-1,-3.4,i,4,CC(C)NC(=O)N(C)C[C@@H]1Oc2ccc(NC(=O)Nc3ccc4c(c3)OCO4)cc2CC(=O)N([C@@H](C)CO)C[C@H]1C
-1,-1.6,i,9,Cc1noc(C)c1S(=O)(=O)N(C)C[C@H]1Oc2ccc(NC(=O)Cc3ccccc3)cc2CC(=O)N([C@@H](C)CO)C[C@@H]1C
-3,-0.3,i,-7,C[C@@H]1CN([C@H](C)CO)C(=O)c2cccc(NC(=O)Nc3ccc(C(F)(F)F)cc3)c2O[C@H]1CN(C)C(=O)Nc1ccccc1
3,-3.0,i,9,C[C@H]1CCCCO[C@H](CN(C)C(=O)C2CCCCC2)[C@@H](C)CN([C@@H](C)CO)C(=O)c2cc(NC(=O)Nc3cccc4ccccc34)ccc2O1
-13,8.6,i,-29,C[C@@H]1CCCCO[C@@H](CN(C)Cc2ccc3c(c2)OCO3)[C@H](C)CN([C@H](C)CO)C(=O)c2cc(NC(=O)Nc3cccc4ccccc34)ccc2O1

# Remaining list, next part
rRNA inh HTS,rRNA inh HTS RFP,FGF22 binding,rRNA inh HTS OD600,molecule
-1,-1.5,i,2,COc1cccc(CN2CCC3(CC2)CN(S(C)(=O)=O)[C@H](CO)c2[nH]c4cc(OC)ccc4c23)c1
2,-2.7,i,4,COCC(=O)N1CCCCN2[C@H](C1)[C@H](c1ccc(-c3ccccc3)cc1)[C@@H]2CO
-7,-1.1,i,-5,COc1ccc(CN(C)C[C@@H]2Oc3c(NC(=O)C4CC4)cccc3C(=O)N([C@@H](C)CO)C[C@H]2C)cc1
-4,4.0,i,-7,CO[C@@H]1CN(C)C(=O)c2ccc(NC(=O)C3CCCC3)cc2OC[C@H](C)N(CCC(F)(F)F)C[C@H]1C
-32,-7.9,i,-54,C[C@@H]1CCCCO[C@@H](CN(C)C(=O)Cc2ccccc2)[C@H](C)CN([C@@H](C)CO)C(=O)c2cc(NC(=O)c3ccccc3)ccc2O1
2,0.2,i,-2,Cc1noc(C)c1NC(=O)N(C)C[C@@H]1Oc2cc(C#CCC(C)C)ccc2S(=O)(=O)N([C@@H](C)CO)C[C@@H]1C
2,2.0,i,0,CC(=O)N1CCCCN2[C@H](CO)[C@H](c3ccc(-c4ccc(C)cc4)cc3)[C@@H]2C1
-2,0.1,i,4,CN(C)CC(=O)Nc1ccc2c(c1)[C@@H]1C[C@H](CC(=O)NCc3cccc(F)c3)O[C@H](CO)[C@@H]1O2
1,-0.1,i,-3,COc1ccccc1NC(=O)Nc1ccc2c(c1)C(=O)N(C)C[C@@H](OC)[C@@H](C)CN(C)[C@H](C)CO2
